CapD inh = inhibitors of Bacillus anthracis CapD enzyme. z-score (test concentration not listed). AID 492967. 140,000 compounds, 0.23% hits. purified CapD enzyme, fluorescence intensity read-out; stronger effect = lower value; some hits fall short of the stated cut;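 active = z-score under -4 in either of two replicates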;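 also: stock transfer was 100 nL into about 40 µL; score is relative to mean and spread of the plate; one replicate is shown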
AID504770 = growth inhibitors of E. coli YBA685 in a screen for V. cholerae RctB (chromosome II replication) inhibitors. E. coli YBA685 rctB-dependent plasmid, OD600 growth, 3 h; stronger effect = lower value. z-score (test concentration not listed). 130,000 compounds, 0.27% hits;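 active = z-score under -2 on both plates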;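 also: wells of about 30 µL received 100 nL stock; score is relative to mean and SD of the test wells; the first replicate is given; strong numbers were not always called active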
Starred values were filed as active, the others as inactive; . = no result given; & = joins results of further samples.

Order of results – AID504770, CapD inh
COc1ccc2nc(NC(=O)CCNS(=O)(=O)c3cccc4nsnc34)sc2c1
    -0.4, 0.53
CCN1CCc2c(sc3nc(=S)[nH]c(N)c23)C1
    -1.2, .
CCCc1cc2c(=O)c(-c3ccc(C(=O)OCC)o3)c(C(=O)OCC)oc2cc1OC
    ., -0.705
CCOC(=O)N1CCN(S(=O)(=O)c2ccc(F)c(C(=O)Nc3ccc(C(F)(F)F)cc3)c2)CC1
    0.5, -0.065
COCCCNC(=O)c1sc2ncnc(N3CCc4ccccc4C3)c2c1C
    ., 2.32
O=C(Cn1ncc(N2CCCC2)c(Br)c1=O)c1ccc(Cl)cc1
    ., -0.495
C(=N\N=C\c1cccs1)/c1cccs1
    -0.8, -2.02
CCOC(=O)C1CCCN(C(=O)c2cc(-c3ccco3)nc3ccccc23)C1 (configuration not stated)
    -0.8, .
Cn1c(=N)n(CCOc2ccccc2Cl)c2ccccc21
    0.7, 1.06
CCOc1ccc(NC(=O)c2c[nH]n3c(=O)cc(C4CCN(C(=O)OC(C)(C)C)CC4)nc23)cc1
    -0.2, -0.135

Further compounds
Order of results – AID504770, CapD inh
Cc1cccc(NC(=O)c2cc(-c3ccccc3Cl)nc3ccccc23)c1
    ., -0.485
CN1CCN(C(=O)c2ccc(Cn3cc(Cl)cn3)o2)CC1
    -0.1, 0
Cc1oc(CC(C)C)cc1C(=O)N1CCN(C(=O)c2cc(CC(C)C)oc2C)CC1
    -0.65, 0.155
O=C(Nc1cc(Cl)ccc1Oc1cc2ccccc2cc1Br)c1cc(I)cc(I)c1O
    ., -0.735
Cc1csc2nc(CCNC(=O)c3cccs3)cn12
    -0.95, .
O=C(Cn1nnc(COc2ccccc2)n1)Nc1cccc(C(=O)NC2CC2)c1
    0, .
COc1ccc(C2CC(C(F)(F)F)n3ncc(C(=O)Nc4sc5c(c4C(=O)OC(C)C)CCCC5)c3N2)cc1 (configuration not stated)
    ., 1.85
O=C(O)c1ccccc1Oc1ccccc1
    2.05, 0.23
O=C(O)CCCC(=O)Nc1cccc2cccnc12
    0.75, -0.11
Cc1ccccc1NC(=S)N(CCCN1CCOCC1)Cc1cccnc1
    0.85, 0.105

Structures shown so far containing four or more nitrogen atoms (eight):
Order of results – AID504770, CapD inh
COc1ccc2nc(NC(=O)CCNS(=O)(=O)c3cccc4nsnc34)sc2c1
    -0.4, 0.53
CCN1CCc2c(sc3nc(=S)[nH]c(N)c23)C1
    -1.2, .
COCCCNC(=O)c1sc2ncnc(N3CCc4ccccc4C3)c2c1C
    ., 2.32
CCOc1ccc(NC(=O)c2c[nH]n3c(=O)cc(C4CCN(C(=O)OC(C)(C)C)CC4)nc23)cc1
    -0.2, -0.135
CN1CCN(C(=O)c2ccc(Cn3cc(Cl)cn3)o2)CC1
    -0.1, 0
O=C(Cn1nnc(COc2ccccc2)n1)Nc1cccc(C(=O)NC2CC2)c1
    0, .
COc1ccc(C2CC(C(F)(F)F)n3ncc(C(=O)Nc4sc5c(c4C(=O)OC(C)C)CCCC5)c3N2)cc1 (configuration not stated)
    ., 1.85
Cc1ccccc1NC(=S)N(CCCN1CCOCC1)Cc1cccnc1
    0.85, 0.105

(continued)
Order of results – AID504770, CapD inh
CC(C)c1ccc(S(=O)(=O)c2cnc(SCC(=O)Nc3ccccc3)[nH]c2=O)cc1
    -0.65, 0.36
CCc1noc(C)c1C(=O)NC(c1ccccc1)c1ccc(Cl)cc1 (configuration not stated)
    0.45, .
Cc1ccc(C)c(NC(=O)CSc2nnc(CNC(=O)c3ccco3)n2-c2ccc(F)cc2)c1
    2.05, .
CC(C)(O)C#Cc1ccc(COC(=O)N2CCN(Cc3ccc(C(C)(C)C)cc3)CC2)cc1
    ., -0.18
Cc1ccc(CN2CCC(CNc3ncnc4onc(C(=O)O)c34)C2)cc1 (configuration not stated)
    2.45, -0.125
Cc1ccc(-c2n[nH]c(=O)c3ccccc23)cc1S(=O)(=O)N1CCOCC1
    ., -0.22
CN1CCN(NC(=O)CC(C)(C)C)CC1
    -0.3, 0.435
Cc1c(-c2ccnn2C(=O)Nc2ccccc2)cnn1-c1ccccc1
    -1.25, -0.655
Clc1ccc(N2CCNCC2)cc1
    0.05, -0.76
COc1ccc(CCN2C(=O)C3CC=C(C)CC3C2=O)cc1OC (configuration not stated)
    1.55, .

For convenience, three of the compounds above.
Order of results – AID504770, CapD inh
Cc1c(-c2ccnn2C(=O)Nc2ccccc2)cnn1-c1ccccc1
    -1.25, -0.655
Clc1ccc(N2CCNCC2)cc1
    0.05, -0.76
COc1ccc(CCN2C(=O)C3CC=C(C)CC3C2=O)cc1OC (configuration not stated)
    1.55, .

Additional compounds follow.
Order of results – AID504770, CapD inh
NC(=O)c1ccc(NC(=O)CC23CC4CC(CC(Br)(C4)C2)C3)cc1
    -0.65, -0.355
Cc1ccc2[nH]c(C)cc(=S)c2c1
    -0.8, .
CCOc1ccccc1C=Nc1ccc(OC(F)(F)F)cc1
    -0.45, 8.61
COc1ccc(N2CC(C(=O)O)CC2=O)cc1 (configuration not stated)
    -0.7, -0.1
O=[N+]([O-])c1cc2c(c([N+](=O)[O-])c1)Nc1ccccc1N=C2c1ccccc1
    ., -0.44
CC(C)(C)c1nnc(SCC(=O)Nc2ccc(Br)cc2)n1N
    0.2, 0.21
CNC(=S)NC(C)C1CC2CCC1C2 (configuration not stated)
    -0.55, .
COc1ccc(C(=O)Nc2ccc3ncsc3c2)cc1
    0.15, 1.58
C=CCc1cc(C)ccc1OCC(O)Cn1c(CO)nc2ccccc21 (configuration not stated)
    -0.05, 0.16
CCN(CC)c1ccc2cc(C(=O)O)c(=O)oc2c1
    -0.85, -0.125&-2.88

New compounds follow:
Order of results – AID504770, CapD inh
CN1CN=C(SCc2ccc(C#N)cc2)NC1
    0.25, 0.71
O=C1c2ccccc2C2(c3ccccc3)NCCCN12 (configuration not stated)
    -0.25, .
CCCCC(Sc1nc(N)c(NC(=O)c2ccc(OC)cc2)c(=O)[nH]1)C(=O)O (configuration not stated)
    1, .
O=C1Nc2ccccc2C1Cc1cccs1 (configuration not stated)
    ., 0.425
CC(=O)N1C(=O)N(C(C)=O)C(O)C1O (configuration not stated)
    -0.65, -0.33
COc1ccc(/C=C/C(=O)NCc2ccncc2)cc1
    1.2, 0.25
CC(NCCCO)c1ccncc1 (configuration not stated)
    -0.15, .
CC(C(=O)NC1=NCCS1)N1C(=O)c2ccccc2C1=O (configuration not stated)
    1.4, .
COc1ccccc1C(=O)COC(=O)C1CC(=O)N(CCc2ccccc2)C1 (configuration not stated)
    1.55, .
CCCN(CCC)C(C(=O)Nc1cccc(OC)c1)c1ccccc1 (configuration not stated)
    -0.55, .

More structures follow:
Order of results – AID504770, CapD inh
COC(=O)c1ccc(COC(=O)Cn2c(C)csc2=O)cc1
    0.65, .
O=C(Nc1nc2ccccc2n1CCOc1ccc(Cl)cc1)c1ccco1
    0.8, 0.565
CC1=CC(=O)N(c2cscc2C)C1=O
    -0.2, 0.395
O=C(OCCN1C(=O)c2cccc3c(N4CCOCC4)ccc(c23)C1=O)c1cccc(Br)c1
    ., 0.335
COc1ccc(C2CC(=O)N3CN(C(C)c4ccccc4)CSC3=C2C#N)cc1 (configuration not stated)
    0.05, -0.7
CCCn1c(=O)c2c(nc3n2CCCN3c2ccc(OCC)cc2)n(C)c1=O
    0.9, .
CCN(CC(=O)Nc1ccccc1OC)CC(=O)Nc1cccc2nsnc12
    0.25, .
CC(C)N(C(C)C)S(=O)(=O)c1ccc(Oc2ccc3c4c(c(=O)oc3c2)CCC4)nc1
    0.15, .
CNCC(O)Cn1c2ccccc2c2ccccc21 (configuration not stated)
    -0.55, 18.2
CCOc1ccc(NC(=O)CSC2=C(C#N)C(c3ccc(Cl)cc3)C(C(=O)OC(C)(C)C)=C(C)N2)cc1 (configuration not stated)
    ., -0.13

Continued:
Order of results – AID504770, CapD inh
Cc1cc(Br)ccc1N1C(=O)/C(=C/c2ccc(-c3ccc([N+](=O)[O-])cc3)o2)C=C1c1ccccc1
    ., -0.23
CC(C)c1ccc(/C=C2\CCc3ccccc3C2=O)cc1
    ., -1.04
C=CCN1C(=O)c2ccccc2Sc2ccc(C(=O)NCc3ccccc3)cc21
    -0.55, -0.99
CC(c1ccccc1)n1c(SCC(=O)c2csc3ccccc23)n[nH]c1=O (configuration not stated)
    0.55, -0.1
Cc1c(NC(=O)CN(c2ccc(Cl)c(C(F)(F)F)c2)S(=O)(=O)c2ccccc2)c(=O)n(-c2ccccc2)n1C
    ., 0.03
COc1ccc(CNC(=O)Cn2nc(-c3ccccc3)ccc2=O)cc1
    0.05, 1.19
COc1ccc(Nc2nnc(C)c3ccccc23)cc1C(=O)N1CCCCC1
    1.6, 0.1
O=C(N1CCCC1)C12CC3CC(CC(Cl)(C3)C1)C2
    -0.65, -0.235
CCOC(=O)CSc1nc2ccc(C)cc2[nH]1
    ., 0.155
CCCCSc1nnc2c(n1)OC1(Nc3ccccc3-2)C(=O)Nc2ccc(F)cc21 (configuration not stated)
    ., -0.13

(next part)
Order of results – AID504770, CapD inh
COc1ccc(C2NC(=S)NC(C)=C2C(=O)Nc2ccc(F)c(F)c2)c(OC)c1 (configuration not stated)
    ., -0.59
Cc1cccc(Cn2c(SCc3ccc(C(=O)N4CCCCC4)cc3)nc3ccncc32)c1
    -0.45, 0.33
O=C(/C=C/c1ccc(F)cc1)NC(=S)NCc1ccco1
    -0.3, .
COC(=O)C1=CN(Cc2ccc(OC)c(OC)c2)C=C(C(=O)OC)C1c1ccc(Cl)c([N+](=O)[O-])c1
    ., -0.485
Cc1c(C(=O)Cn2ccnc2)sc2ccc(Cl)cc12
    0.1, -1.25
CC1=CC2=C(OC1N(C)C)c1cccc3cccc(c13)C2=O (configuration not stated)
    -0.15, 2.58
COc1ccccc1NC(=O)C1=C(C)OCCS1
    1.2, -0.57
COc1cc(OC)c(NC(=O)Cn2ncc3c4ccccc4n(C)c3c2=O)cc1Cl
    0.25, 0.895
Clc1ccc(-c2csc3ncnc(-n4ccnc4)c23)cc1
    0.55, 0.115
Nc1nnc(SCC(=O)c2ccccc2)s1
    1, -0.72

More entries.
Order of results – AID504770, CapD inh
CCOC(=O)COc1ccc(/C=C2\C(=O)NC(=O)N(c3ccc(Br)cc3)C2=O)cc1
    ., 0.265
O=C1C2C3C=CC(C2C(=O)N1C1CCCCC1)C1C2C(=O)N(C4CCCCC4)C(=O)C2C31 (configuration not stated)
    ., -0.03
O=C(CCCN1C(=O)CSc2ncccc21)NCc1ccc(Cl)cc1
    0.05, 0.195
Cc1cccc(C(=O)NCC(=O)OCc2cccc(C(F)(F)F)c2)c1
    -0.6, 0.265
CCCNC(=O)c1ccc2c(c1)N(Cc1ccccc1)C(=O)CS2=O (configuration not stated)
    -0.8, 0.06
CC1(C)CC(=O)C2=C(C1)Nc1ccc3ccccc3c1C2c1ccc(I)cc1 (configuration not stated)
    ., 38.5
COc1ccc2c(-c3ccccc3)cc(=O)oc2c1
    -0.1, 0.54
O=c1cc(C(F)(F)F)cc[nH]1
    2.6, 26
CSc1ncc(Cl)c(C(=O)NCCc2ccc(S(N)(=O)=O)cc2)n1
    -0.3, -0.065
Cc1c(C(=O)N2CCC(C)CC2)oc2ccc(S(=O)(=O)N3CCCCC3)cc12
    0.1, 0.34

The results go on:
Order of results – AID504770, CapD inh
COc1ccc(-c2nc3ccccc3o2)cc1N
    -0.4, .
O=C(CSc1ccccn1)N1CCCCC1
    -0.25, .
CCOC(=O)c1ccc(NC(=O)c2oc3c(c2C)-c2nn(Cc4ccc(C)cc4)cc2CC3)cc1
    0.25, 0.23
Cc1nc(C(F)(F)F)ccc1C(=O)O
    -0.75, 5.89
Oc1ccccc1C1=NC(c2ccc(F)cc2)NC(c2cccnc2)C1 (configuration not stated)
    -0.95, -0.855
CCCCN(Cc1ccco1)C(=O)c1cc2c(s1)-c1ccccc1OC2
    0.4, 0.335
Cc1cc(C)c(S(=O)(=O)N(C)C)c(C)c1
    0.3, 0.355
O=C(Nn1c(-c2cccs2)nc2ccccc2c1=O)c1cc2ccccc2oc1=O
    ., 0.705
CCOC(=O)CSC1=NC(=O)/C(=C\c2ccc(Cl)cc2)S1
    0, 0.375
O=C(NC1CCSc2ccccc21)C1=CC=CN2CCS(=O)(=O)N=C12 (configuration not stated)
    2.95, .

New compounds follow.
Order of results – AID504770, CapD inh
COc1ccc2c(ccc[n+]2[O-])c1
    -1.25, 7.98
COc1ccc(C(=O)Nc2sccc2C(N)=O)c(OC)c1
    1.5, 2.88
CCCS(=O)(=O)c1c(S(=O)(=O)CCC)c2c(C)cccn2c1C(=O)N/N=C/c1ccc(OC)c(OC)c1
    ., 0.335
CCCCn1c(SCC(N)=O)nnc1-c1ccco1
    1.9, .
Cc1c(-c2ccccc2)sc(N)c1C(=O)N1CCCCC1
    0.25, .
Cc1cccc(NC(=O)Cn2cnc3c(oc4ccccc43)c2=O)c1
    0, 0.625
CCOC(=O)CSc1nc(C)c2cc(OC)ccc2n1
    1.45, 77.3
CN(C(=O)C(C)(C)C)c1ccc(OCC(=O)N2CCCc3ccccc32)cc1
    -0.6, -0.31
Cc1ccc(S(=O)(=O)N(CC(O)CN2CCCCC2)c2cccc3ccccc23)cc1 (configuration not stated)
    ., 1.69
COC(=O)c1cc(OC)c(OC)cc1NC=C(C#N)C#N
    -0.3, 3.61

(continued)
Order of results – AID504770, CapD inh
COC(=O)c1ccccc1NC(=O)c1noc2c1CCCC2
    0.7, 0.695
O=C(NC(Cc1ccccc1)C(=O)Nc1ccc([N+](=O)[O-])cc1)c1cn[nH]c1 (configuration not stated)
    ., -1.43
O=C(c1ccc2nccnc2c1)N1CCc2ccccc2C1
    0.9, -0.015
O=c1oc2c3c4c(cc2cc1-c1nnc(Nc2ccccc2)s1)CCCN4CCC3
    ., 0.035
COC(=O)C(Cc1ccccc1)NC(=O)Cc1nc(-c2ccccc2)oc1C (configuration not stated)
    ., 2.37
Cc1nn(-c2ccccc2)c(N)c1N=Nc1ccccc1OC(F)F
    0.1, .
Cn1c(=O)[nH]c(=O)c2c1ncn2CCCNC1=NCCCC1
    0.2, 0.38
CC(C)(C)n1nc2c(c1NC(=O)/C=C\c1ccccc1)CS(=O)C2 (configuration not stated)
    0.2, .
